Source: PubChem
VACV Venus inh = qHTS for Stage-Specific Inhibitors of Vaccinia Orthopoxvirus: Venus Reporter Primary qHTS. Vaccinia virus Venus reporter expression, fluorescence. Potency, µM (doses to about 36.5 µM), for the others: at the top dose activity change, negative = inhibition, actives largely listed as inhibitors. 0.46% of 330,000 active; active means well fitted inhibition curve with a large enough effect; inconclusive means small, poorly fitted or top-dose-only effect; inactive means no such curve, though single readings can be large or run the other way; tested in A549 cells; also: nearly all actives have a fitted effect of over 30% in size; inactives centre near -10
VACV mCherry inh = qHTS for Stage-Specific Inhibitors of Vaccinia Orthopoxvirus: mCherry Reporter Primary qHTS | Potency, µM (top dose mostly 36.5 µM), for the others: top-dose activity change, negative = inhibition, most hits filed as inhibitors | 0.63% of 310,000 active | Vaccinia virus mCherry reporter infection, fluorescence; about a quarter of the inactives have no number; active = well fitted inhibition curve with a large enough effect; inconclusive = small, poorly fitted or top-dose-only effect; inactive = no such curve, though single readings can be large or run the other way; tested in A549 cells; also: nearly all actives have a fitted effect of over 35% in size; inactives centre near -10
Numbers without * were called inactive; i = inactive; ? = inconclusive; / = no result given; & = joins results of further samples; [ ] = another dose, or the depositor's remark. % is scaled to controls: 0 for no effect and ±100 for the full control effect; potency is read from the fitted curve at half-maximal effect.

SMILES	VACV Venus inh	VACV mCherry inh
COc1cc(C=NCc2ccccc2)ccc1O	-9%	-7%
CCNC(=S)NNC(=O)c1csc(C)c1	-7%	-18%
Oc1c(C=C2N=c3ccccc3=N2)sc(=S)n1C1CCCC1	-6%	i
CC(C)Cn1c(CCC(=O)O)ccc1-c1cccs1	3%	-7%
CCc1cc2c(cc3c(=O)n(CC(=O)NC4CCC(C)CC4)nc(CC)n32)s1 (stereo not given)	-13%	-21%
CC(C)CNC(=S)NC(=O)c1ccc(F)cc1	-10%	i
CC1(C(=O)NCc2ccccc2)CSCC(=O)N1CCCn1ccnc1 (stereo not given)	7%	-14%
CCOC(=O)c1c(NC(=O)c2cc(-c3ccc(Cl)cc3)on2)sc(C)c1C	6%	-9%
COc1ccc(NC(=O)CSc2nnc(Cc3cccn3C)n2CCc2ccccc2)cc1OC	-10%	i
COc1ccccc1CNC(=O)CSc1ccc(C)cc1	-11%	i
CCCCCc1c(-c2ccc(F)cc2)ncn1CCc1ccccc1OC	-27%	?
COc1ccc(CNc2nc(SCc3ccccc3Cl)nc3ccccc23)cc1	?	-22%
Fc1ccc(Nc2ncnc3onc(-c4cccc(Cl)c4)c23)c(F)c1	-2%	7%
CSCCC(NS(=O)(=O)c1ccc(Cl)cc1)C(=O)N1CCN(c2ccccc2)CC1 (stereo not given)	-7%	-17%
O=C1CC(N2CCC(n3c(=O)[nH]c4ccccc43)CC2)C(=O)N1Cc1ccccc1 (stereo not given)	-8%	/
CCC(CC)C(=O)Nc1ccc(S(=O)(=O)N2CCC(c3nc4ccccc4s3)CC2)cc1	-14%	-17%
O=C(Nc1ccc(S(=O)(=O)N2CCCCC2)cc1)C1CCCCC1	-24%	-8%
COC(=O)C1=C(c2cc3ccccc3o2)C[C@@H]2CC[C@H]1N2C(=O)NCCNC(C)=O	-12%	-1%
Cc1ccc(C)c(-n2cc[nH]c2=S)c1	-10%	-13%
O=C(N/N=C/c1ccc(O)c2ccccc12)c1cccnc1	-7%	-5%
O=C(NCCC1=CCCCC1)C1CCN(C(=O)Cc2ccccc2)CC1	-12%	-1%
Cc1ccc(C(=O)Nc2cc3cc(Cl)ccc3oc2=O)cc1	-21%	-25%
O=C(CSc1ncnc2c1nnn2Cc1ccc(F)cc1)NC1CCCCC1	-8%	i
COc1ccccc1-c1cc(C(=O)Nc2c(C)n(C)n(-c3ccccc3)c2=O)no1	-6%	i
O=C(NNC1=C(C(=O)C(F)(F)F)CCC1)c1ccccc1O	-28%	-21%[1.46 µM]
Next compounds
SMILES	VACV Venus inh	VACV mCherry inh
Cc1ccc(Cn2ncc3c(N4CCN(C5CCCC5)CC4)ncnc32)cc1	-11%	i
CCCc1cc(C(=O)Nc2cccc(Cl)c2)no1	0%	-15%
Cc1nc(Oc2ccccc2)c2ccccc2n1	-12%	-27%
COCCNC(=O)Cn1cc(C=C2C(=O)NC(=O)NC2=O)c2ccccc21	-14%	1%
COc1ccc(Cl)cc1NS(=O)(=O)c1cccc(C(=O)NCCCN2CCCC2=O)c1	-21%	-2%
CC(C)COc1ccc(C(=O)N2CCC(c3nc4ccccc4s3)CC2)cc1	9%	-7%
CCCCN(CCC#N)c1ccc(/C=C/c2ccnc3ccccc23)cc1	-7%	?
CCNC(=O)c1c(NC(=O)C2COc3ccccc3O2)sc2c1CCCC2 (stereo not given)	-41%	/
NCCCC(=O)OC1N=C(c2ccccc2Cl)c2cc(Br)ccc2NC1=O (stereo not given)	-6%	-2%
O=C(NCc1ccc(Cl)cc1)c1ccc(Cl)cc1[N+](=O)[O-]	-2%	-12%
CCc1ccc(N2CCn3c2nc2c3c(=O)n(CCCc3ccccc3)c(=O)n2C)cc1	-26%	?
CC(=O)NCC(=O)N1CCCC(C(=O)c2ccc(-c3ccccc3)c(F)c2)C1 (stereo not given)	-13%	-22%
CSc1ccc(CCNC(=O)Cn2ncn3c(cc4ccccc43)c2=O)cc1	-9%	-13%
Cc1ccc2c(COC(=O)c3ccc(NC(=O)CC#N)cc3)cc(=O)oc2c1C	-8%	-5%
CCN(CC)CC(=O)Nc1c(C)cccc1C	-16%	-7%
COc1ccc(C2NC(=O)NC(O)(C(F)(F)F)C2C(=O)c2ccc(F)cc2)cc1 (stereo not given)	-18%	-22%
C=C(C)CN(Cc1ccccc1)C(=S)Nc1ccccc1	1%	-8%
COc1cc(CNCc2ccccn2)ccc1OCc1ccc(Cl)c(Cl)c1	-17%	-18%
COC(=O)Nc1nc2ccc(-c3n[nH]c(=O)c4ccccc34)cc2[nH]1	-14%	-3%
CC1(C)Cc2cccc(OC(=O)NC3CCCCC3)c2O1	0%	4%
CCOC(=O)C1(C)CCCCCN1C(=O)c1csnn1 (stereo not given)	?	-10%
CC(Sc1nnc(NC2CCCCC2)s1)C(=O)N1CCOCC1 (stereo not given)	-11%	-14%
COCCOC(=O)C1=C(C)N(Cc2ccccc2)C(=O)NC1c1ccc(OC)cc1 (stereo not given)	?	/
O=C(Nc1cccc(OCc2cc(=O)n3ccccc3n2)c1)c1ccccc1Br	-9%	i
O=C(CCCn1c(=O)[nH]c2cc(Cl)ccc2c1=O)NCCN1CCN(c2ccccc2)CC1	18%	/

Nothing new here: an excerpt of the list.
SMILES	VACV Venus inh	VACV mCherry inh
COc1cc(C=NCc2ccccc2)ccc1O	-9%	-7%
CCNC(=S)NNC(=O)c1csc(C)c1	-7%	-18%

Reformatted: results already given.
Values run as follows: VACV Venus inh	VACV mCherry inh
> CCOC(=O)C1(C)CCCCCN1C(=O)c1csnn1 (stereo not given)
    ?	-10%
> CC(Sc1nnc(NC2CCCCC2)s1)C(=O)N1CCOCC1 (stereo not given)
    -11%	-14%
> COCCOC(=O)C1=C(C)N(Cc2ccccc2)C(=O)NC1c1ccc(OC)cc1 (stereo not given)
    ?	/

More results:
SMILES	VACV Venus inh	VACV mCherry inh
Cc1ccc2c(Cl)cc(Cl)c(OCc3c(C)noc3C)c2n1	19%	/
COc1cccc(CNC(=O)Cc2ccc(NC3=NC4CS(=O)(=O)CC4S3)cc2)c1 (stereo not given)	-18%	i
C[C@H]1CN([C@@H](C)CO)S(=O)(=O)c2ccc(Br)cc2O[C@H]1CN(C)C(=O)C1CCC1	-9%	-12%
COc1cc(OC)c(NC(=O)C2=C(C)C(=O)OC23CCCCCC3)cc1Cl	-22%	-23%
O=C(NCCCN1CC1)Nc1cccc2ccccc12	-19%	-28%
COc1ccc(CCNS(=O)(=O)c2ccc3c(c2)c(=O)n(C)c(=O)n3C)cc1OC	-4%	-2%
CCc1nnc(NC(=O)NCN2C(=O)C3C4C=CC(C4)C3C2=O)s1 (stereo not given)	-10%	/
C=CCOC(=O)/C(=C\c1ccc(OC)cc1)NC(=O)c1ccco1	-5%	-4%
COc1ccc(CNC(=O)COC(=O)CC2CCCC2)cc1	-9%	i
CC1CN(CCC(=O)Nc2ccc3c(c2)OCO3)CC(C)O1 (stereo not given)	-5%	-1%
CC(=O)c1c(C)[nH]c(C(=O)OCC(=O)Nc2ccc3[nH]c(=O)[nH]c3c2)c1C	-11%	i
Clc1ccc(-c2csc(NNC3=NCCCCC3)n2)cc1	-10%	-1%
O=C(Nc1ccc(Cl)c(Cl)c1)Nc1nnc(CSc2ccccc2)s1	-24%	-19%
CCN(CC)C(=O)Cn1cc(C(=O)C(=O)N2CCN(Cc3ccccc3)CC2)c2ccccc21	-10%	0%
Cc1ccc2c(c1)N(C(=O)CCC(=O)O)CCO2	-11%	-10%
CCOc1ncccc1C(=O)OCC(=O)NCc1ccc(C(=O)OC)cc1	-8%	i
COC(=O)c1cc(CNC(=O)c2ccccc2OCc2c(C)noc2C)ccc1OC	-18%	1%
COc1ccc(/C=N/NC(=O)c2c(-c3ccccc3)noc2C)cc1	-14%	-15%
CCC(CC)CN1CCC(CN2CCNC(=O)C2=O)CC1	-14%	i
COc1ccc(NC(=O)c2nc[nH]c2C(=O)N[C@@H](CC(C)C)C(=O)OC(C)(C)C)cc1	-23%	?
Fc1ccc(CCNCc2cccc(Cl)c2)cc1	-16%	-11%
COc1ccccc1Nc1nc2nonc2nc1N1CCC(C)CC1	-15%	-4%
Cc1ccc(NC2=NCC(=O)N2Cc2ccc3c(c2)OCO3)cc1	-18%	i
Oc1c(Cl)cc(Cl)cc1Sc1cc(Cl)cc(Cl)c1O	?	?
COc1ccccc1NS(=O)(=O)c1cc(NC(=O)CC(C)(C)C)ccc1N1CCOCC1	-10%	-12%
Going on with the list:
SMILES	VACV Venus inh	VACV mCherry inh
CC(C)N(CCCNC(=O)Cn1ncc2c([nH]c3ccccc32)c1=O)Cc1ccccc1	-4%	-8%
CC(=O)Nc1ccc(S(=O)(=O)N2CCN(c3nc(NC4CCCC4)c4ccccc4n3)CC2)cc1	?	?
COC(=O)c1c(-c2cccs2)csc1NC(=O)COc1c(C)ccc(C)c1C	-10%[7.34 µM]	-1%[7.34 µM]
CCCS(=O)(=O)c1nc(S(=O)(=O)c2ccc(C)cc2)c(NC)s1	-11%	-15%
Cc1ccc(-n2c(SCC(=O)N/N=C/c3ccc(C)s3)nnc2-c2ccccc2)cc1	-5%	-13%
COc1ccc(CC(=O)Nc2c(C(N)=O)oc3ccccc23)cc1OC	-23%	i
Cc1c(C(=O)N(Cc2ccc(N(C)C)cc2)CC2CCCO2)oc2ccc(Br)cc12 (stereo not given)	-15%	-21%
COc1cc(NC(=O)c2ccc(S(=O)(=O)N(C)c3ccccc3OC)cc2)cc(OC)c1	-10%	?
CC(=O)Nc1ccc(NC(=O)CSc2nc3ccccc3nc2N2CCCCC2)cc1	-19%&-13%	-13%&-9%
NC(=O)NCC12CC3CC(CC(C3)C1)C2	-28%	-16%[1.46 µM]
CCCCN1C(=O)C(=O)N(CC(=O)Nc2ccccc2C(C)=O)C1=O	-14%	i
Cc1cc(C)n2nc(C(=O)OCC(=O)NC3CCCCC3)nc2n1	-3%	-8%
CN(C)S(=O)(=O)n1cc(/C=C(\NC(=O)c2ccccc2F)C(=O)N2CCCCC2)c2ccccc21	-20%	?
COC(=O)c1[nH]c2ccccc2c1NC(=O)C(C)N1CC(C)OC(C)C1 (stereo not given)	-4%	i
COc1cccc(CN2CC(C(=O)NC3CCCCCC3)CCC2=O)c1 (stereo not given)	-5%	-10%
O=C(NCc1ccc(Cl)c(Cl)c1)c1cc(C2CCCCN2C(=O)c2ccccc2)on1 (stereo not given)	-6%	-9%
O=C(NCCc1ccccc1)c1ccc(-c2ccc(F)c(F)c2)c2ccoc12	-12%	-16%
COc1cc(C2C3=C(CCCC3=O)OC3=C2C(=O)CCC3)ccc1OCC(=O)Nc1ccccc1	-15%	-19%
CCN(CC)S(=O)(=O)c1ccc2c(c1)N(CC(=O)N1CCN(c3cccc(OC)c3)CC1)C(=O)CO2	-3%	-10%
CCc1nc2ccc(C(=O)NCC3CCCCC3)cn2c1N(C)C(=O)c1cccc(OC)c1	-15%	-11%
COc1cccc(CC(=O)OCC(=O)NNC(=O)c2ccc([N+](=O)[O-])cc2)c1	-5%	-9%
CCOc1ccc(CCNC(=O)c2ccc3nc(N4CCOCC4)sc3c2)cc1OCC	-1%	-26%
Cc1c(Cl)ccc2sc(NC(=O)c3ccco3)nc12	-28%	?
Cc1cc(-c2ccccc2)nn1-c1nc2c(c(=O)[nH]c(=O)n2C)n1C	0%	-4%
COc1ccc(C2=NN(C(=O)c3cccs3)C(c3ccc(OC)cc3)C2)cc1 (stereo not given)	-16%	?
Further compounds
SMILES	VACV Venus inh	VACV mCherry inh
O=C(NCCCN1CCOCC1)c1ccc(CS(=O)(=O)c2ccc(Br)cc2)o1	-1%	0%
CCn1c(SCC(=O)Nc2nc3ccc(OC)cc3s2)nnc1-c1ccoc1C	-20%	?
CC1CCN(CC2CCN(C(=O)NCc3ccccc3)CC2)CC1	-5%	-5%
Cc1ccc(S(=O)(=O)NC2(C(F)(F)F)NC(=O)N(Cc3ccccc3)C2=O)cc1 (stereo not given)	-15%	i
CCCCCCCOC(=O)C1=C(C)Nc2ncnn2C1c1cccs1 (stereo not given)	-9%	-7%
COC(c1ccccc1)c1nnc(CCC(=O)NC2C3CC4CC(C3)CC2C4)o1 (stereo not given)	-20%	-8%
N=C1C=CC(=C(c2ccc(N)cc2)c2ccc(N)cc2)C=C1	?	?
CC(=O)N1CCc2cc(S(=O)(=O)NC(Cc3ccccc3)C(=O)Nc3cc(C)ccc3C)ccc21 (stereo not given)	1%	10%
c1cc2c(cc1C1OC[C@@H]3C(c4ccc5c(c4)OCO5)OCC13)OCO2 (stereo not given in full)	0%	-7%
CCOc1ccc(NC(=O)c2cc3nc(-c4ccc(OC)cc4)cc(C(F)(F)F)n3n2)cc1	-15%	-8%
O=C(O)C1CC=CCC1C(=O)NNc1c(Cl)cc(Cl)cc1Cl (stereo not given)	0%	3%
O=C(Cn1c(C(F)(F)F)nc2ccccc21)c1ccc(F)cc1	-18%	/
COc1cc2c(cc1NS(=O)(=O)c1cccc(C#N)c1)n(C)c(=O)n2C	-8%	2%
c1ccc(-n2c(SCC3CCCCO3)nnc2-c2cccs2)cc1 (stereo not given)	-19%	-12%
CCN(CC)C(=O)CSc1nc2sc3c(c2c(=O)n1CCCOC)CCC3	-11%	-13%
CC1=CC(=O)O[C@@H]1[C@@]1(C)C[C@H]2OC(=O)C[C@H]3[C@@H](C)C(=O)C(O)=C1[C@@]23CO	3%	2%

Single records, as listed above:
CC(=O)N1CCc2cc(S(=O)(=O)NC(Cc3ccccc3)C(=O)Nc3cc(C)ccc3C)ccc21 (stereo not given) in the list: VACV Venus inh: 1%; VACV mCherry inh: 10%
c1ccc(-n2c(SCC3CCCCO3)nnc2-c2cccs2)cc1 (stereo not given) in the list: VACV Venus inh: -19%; VACV mCherry inh: -12%
